# Biofilm kill mix = mixtures killing C. albicans biofilm; C. albicans biofilm persisters + clotrimazole, fluorescence viability; primary screen in compound mixtures of four per well; inhibition, % at 7.6 µM; 120,000 tested, 0.02% active; AID 1242;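 active = inhibition above 30.3% in the primary screen of four-compound pools, then above 30% when the compound was retested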;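 note: compounds exposed to preformed 24 h biofilms for 48 h; the number belongs to the whole pool; some results filed as inactive read as strong as hits; inactives centre near 12; 0% = biofilm with clotrimazole alone and 100% = kill control; retested singly at about 60 µM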
#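 Probe or stimulus – Clotrimazole 50 µg/mL co-treatment · System – C. albicans biofilms · Schedule – 24 h biofilm formation, then 48 h compound exposure, 37 °C · Evaluation – percent inhibition of biofilm viability · Technique – 2-h Alamar Blue fluorescence, 535/590 nm excitation/emission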
# Active calls of the source: *. Only part of the results is shown; the hit share may differ from the screen's.
SMILES,Biofilm kill mix
CC12CCC(C(=O)N(CCCN3CCN(Cc4ccccc4)CC3)C1=O)C2(C)C (centres undefined),16
CC1=C(C)CC(C(=O)NCc2ccccn2)C(C(=O)O)C1 (centres undefined),28
CCOC(=O)c1ccc(Nc2ccc([N+](=O)[O-])cn2)cc1,0
CCOC(=O)CSc1nc2ccc(Nc3nc(N4CCOCC4)nc(N4CCOCC4)n3)cc2s1,19
O=C(NCCO)/C(=C\c1ccc([N+](=O)[O-])o1)NC(=O)c1ccccc1,7
NNc1nnnc2c1sc1nc(N3CCOCC3)c3c(c12)CCCC3,20
O=C(CSc1nnc(NC(=O)c2ccco2)s1)Nc1ccc(F)cc1,8
COC(=O)C1=C(C)N(C)C(=S)NC1c1c(OC)ccc2ccccc12 (centres undefined),4
COc1ccc(/C=N/Nc2ccc(C(F)(F)F)cc2[N+](=O)[O-])cc1O,23
C/C(Cc1ccccc1)=N\NC(=O)CNC(=O)c1ccc(Cl)cc1Cl,9
CN1CC(=O)N(CC(=O)Nc2cccc(S(=O)(=O)N3CCOCC3)c2)C1=O,14
CCN(CC)CC(=O)Nc1cccc2c1C(=O)c1ccccc1C2=O,17
CC(=O)Nc1ccc(Nc2c3ccccc3nc3ccccc23)cc1,11
O=C(Cc1ccccc1)NCC(=O)Nc1cccc(Br)c1,14
CS(=O)(=O)N1CCc2cc(C(=O)N3CCCC3)ccc21,9
CCOC(=O)c1c(O)c2cc(Cl)ccc2n(CC)c1=O,4
COc1cc(-c2[nH]ncc2CN2CCN(Cc3cccs3)CC2)cc(OC)c1OC,8
Cc1ccc(S(=O)(=O)N2CCC(=O)N(CCOC(=O)NCc3ccccc3)CC2)cc1,17
COc1ccc(NC(=O)CSc2cc(C(=O)c3nccn3C)c3ccccc3n2)cc1,1
C/C(CC1CC(COCC(C)C)OC1=O)=N\NC(N)=S (centres undefined),11
Cc1cccc(NC(=S)NCc2ccco2)n1,-4
Cc1cc(C)c(S(=O)(=O)NCC(CCC(=O)O)C(F)(F)F)c(C)c1 (centres undefined),5
Cc1[nH]c2ccccc2c1/C=N/NC(=O)c1cccc([N+](=O)[O-])c1,2
COc1ccc(N2CCN(CC(=O)NCc3ccccc3)CC2)cc1,14
COc1ccc(F)c(CN2CCC(N3CCC(C(=O)N4CCOCC4)CC3)CC2)c1,9
SMILES,Biofilm kill mix
CCn1c(SCC(=O)N/N=C/C=C/c2ccco2)nc2ccccc21,29
CC(C)(C)C(=O)N1N=C(c2cccc(NS(C)(=O)=O)c2)CC1c1cccs1 (centres undefined),21
CCN(CC)S(=O)(=O)c1cccc(NC(=O)/C=C/c2cccc([N+](=O)[O-])c2)c1,5
Cc1ccccc1NC(=S)NCC1CCC(CNC(=S)Nc2ccccc2C)CC1 (centres undefined),1
CS(=O)(=O)N1CCC(C(=O)NCc2ccccc2)CC1,-3
O=C(CCS(=O)(=O)c1ccc(Cl)cc1)NCCN1C(=O)S/C(=C\c2ccccc2F)C1=O,12
CC1(C)CC(=O)C2=C(C1)OC(N)=C(C#N)C2c1ccc[nH]1 (centres undefined),19
Cc1nc2sc3c(c2c(=O)n1/N=C/c1cccnc1)CCCC3,8
N#C/C(=N/Nc1ccc(S(=O)(=O)N2CCOCC2)cc1)C(N)=O,29
COc1cccc(OCc2cc(C3Nc4ccccc4C(=O)N3Cc3ccco3)ccc2OC)c1 (centres undefined),9
CC1C=CCC2C(=O)N(c3ccc(OC(=O)c4cccs4)cc3)C(=O)C12 (centres undefined),-18
Cc1cc(Br)ccc1NC(=O)CN1C(=S)NC(C)(C)CC1C (centres undefined),-1
CC(=O)N1N=C(c2ccco2)CC1c1cc2ccc(C)cc2nc1Cl (centres undefined),29
O=C(c1ccccc1F)N1CCN(S(=O)(=O)c2ccc(S(=O)(=O)N3CCCCCC3)cc2)CC1,13
C=CCSC(CC)(CC)C(N)=O,14
CC(=O)c1cnc(Nc2cccc(C)c2)s1,8
CCN(CC)c1cc(NCCO)c([N+](=O)[O-])c2nonc12,-2
CCOC(=O)C1=C(C)NC(C)=C(C(=O)OCC)C1C(=O)OCC(=O)N(C)C,10
COc1ccc(C(=O)N2CCc3ccccc32)cc1,17
CCOc1cc(S(=O)(=O)NCc2ccncc2)c(C)cc1C,13
O=C(O)c1ccccc1NN=C1CCCCC1,1
O=C(/C=C/c1ccco1)Nc1ccc(S(=O)(=O)N2CCOCC2)cc1,6
Cc1cc(=O)oc2ccc(OC(=O)CC(C)C)cc12,26
CCN(CC)S(=O)(=O)c1ccc(N2CCOCC2)c(NC(=O)Cc2cccc3ccccc23)c1,10
COc1ccccc1NC(=S)Nc1cccc(F)c1,1
SMILES,Biofilm kill mix
CCN1CCN(C(=O)NC2CC(=O)N(c3ccc(OC)cc3)C2)CC1 (centres undefined),1
Cc1c(Cl)c(C(=O)N2CCCC2)nn1C,14
Cc1ccc(NC(=S)NCCN(C2CCCCC2)C2CCCC2)cc1,6
O=C(COc1ccc(NC(=O)c2ccccc2[N+](=O)[O-])cc1)c1ccc(F)cc1,1
O=C(c1cccc(Cl)c1)N1CCC(=O)N(C(COCc2ccccc2)Cc2ccccc2)CC1 (centres undefined),11
CCOc1ccccc1NC(=O)C1=C(C)NC(=S)NC1c1cccs1 (centres undefined),9
CS(=O)c1ccccc1-c1nc(-c2ccc(Cl)cc2)no1 (centres undefined),20
Cc1c(NS(=O)(=O)c2ccc(Cl)c(C(=O)OC(C)C(=O)NCc3ccco3)c2)c(=O)n(-c2ccccc2)n1C (centres undefined),7
CCCCCOc1ccc(C(=O)C(c2ccccc2)N2CCOCC2)cc1 (centres undefined),8
O=S(=O)(Nc1cccc(-c2cn3cccnc3n2)c1)c1ccc(Cl)cc1,-12
C[C@H](NC(N)=O)C(=O)OCC(=O)NCc1cccs1,-3
Cc1ccc(-n2c(SCC(=O)N3CC(=O)Nc4ccccc43)nc3ccccc3c2=O)cc1C,7
CC(C)C[C@H](N)c1nnc(SCc2ccc(Cl)cc2)o1,6
COc1cc(C(=O)NC2CCCCC2)ccc1OCc1ccc(Cl)cc1Cl,11
CC(=O)Nc1ccc(S(=O)(=O)NCC(=O)OCc2cc(=O)oc3ccc4ccccc4c23)cc1,8
CC(=O)OC[C@]1(OC(C)=O)C[C@@]23CC[C@H]4[C@@](C)(CCC[C@@]4(C)C(=O)O)[C@@H]2CC[C@@H]1C3,12
COCc1cc(=O)n2[nH]c(-c3ccco3)cc2n1,17
O=C(Nc1nccs1)c1cn(-c2ccccc2)nc1-c1ccncc1,14
Cc1ccc(NC(=O)CS(=O)CC(=O)N(C(C)C(=O)NC2CCCCC2)C(C)(C)C)cc1 (centres undefined),16
CCOc1ccccc1CSc1nc2ccccc2[nH]1,11
Cc1cccnc1NC(=O)NC(=O)c1ccc(C(C)(C)C)s1,32
Cc1cc(C)nc(NS(=O)(=O)c2ccc(NC(=O)CN3C(=O)C4CC=CCC4C3=O)cc2)n1 (centres undefined),10
COc1ccc(N(C)C(=O)Cc2c(C(=O)O)[nH]c3ccccc23)cc1,22
COC(=O)CC1=NN(c2ccccc2)C(=O)C1,8
Cc1cc2ccccc2n1CCNCc1c(C(=O)N2CCOCC2)nc2ccccn12,6
SMILES,Biofilm kill mix
Clc1nccnc1-c1ccccc1,6
COc1cc([N+](=O)[O-])cc(/C=N/NC(=O)CSc2nnc(-c3ccccc3)n2C)c1O,26
COc1ccccc1N(C)S(=O)(=O)c1ccc(C(=O)Nc2ccc3nc(C)sc3c2)cc1,13
CCOc1ccc(/C=N/NC2=NCCCCC2)cc1,14
CSC(=Nc1ccccc1)C(C#N)c1nc2ccccc2[nH]1 (centres undefined),25
CCN1C(=O)/C(=C/C=C2\C=CN(CC)c3ccccc32)SC1=S,4
COc1ccccc1C(=O)CSc1nnc(-c2ccco2)o1,4
CCOc1ccc(NC(=O)c2ccc3c(SCC(=O)O)c4c(nc3c2)CCCC4)cc1,10
CC(C)(C)Cn1c(=O)[nH]c(=O)c2cc([N+](=O)[O-])cnc21,16
CC(C)OC(=O)c1cc2c(ccn2-c2ccc(F)cc2)n1CC(=O)N1CCN(C(=O)c2ccco2)CC1,8
O=C(COC(=O)c1nc(-c2ccccc2)n(-c2cccc(C(F)(F)F)c2)n1)NCc1cccs1,19
COC(=O)c1c(SCC(=O)Nc2ccc(C)cc2)nc(=O)[nH]c1C,16
Cc1cc(=O)[nH]c(N2CCOCC2)n1,6
O=C(NCCc1ccc(F)cc1)Nc1ccc2c(c1)OCO2,12
CCOC(=O)/C(C#N)=C/c1cn(CCC(=O)O)nc1-c1ccc(Cl)cc1,11
O=C(NC12CC3CC(CC(C3)C1)C2)N(Cc1ccccc1)Cc1ccncc1,13
Cc1ccc(S(=O)(=O)Oc2ccccc2/C=N/NC(=O)c2c(Cl)cnn2C)cc1,9
O=C(CN1C(=O)C2CC=CCC2C1=O)Nc1nccs1 (centres undefined),9
CCOC(=O)C1CCN(S(=O)(=O)c2ccc(OC)c(Cl)c2)CC1,7
O=C(c1ccc2c(c1)OCO2)C1CCCN(C(=O)C2CCOCC2)C1 (centres undefined),6
N#CC1c2ccccc2C=CN1C(=O)c1ccccc1 (centres undefined),19
COc1ccccc1C(=O)C1CCCN(C(=O)CCC(=O)c2ccccc2)C1 (centres undefined),6
CSCCC(NC(=O)c1ccc(Cl)cc1)C(=O)OCC(=O)Nc1cc(Cl)ccc1C#N (centres undefined),8
COc1ccc(N2CCN(C(=O)c3ccc4c(c3)[nH]c(=S)n3c5ccccc5nc43)CC2)cc1,12
CC1CCN(C(C(=O)O)c2ccccc2)CC1 (centres undefined),5
SMILES,Biofilm kill mix
Cc1cccc(Oc2ccc(NC(=O)C3CC=CCC3C(=O)O)cc2)c1 (centres undefined),-3
CCn1cc(Cl)c(C(=O)NNC(=O)CCn2cc([N+](=O)[O-])cn2)n1,8
O=C(NCc1c(Cl)cccc1Oc1ccccc1)c1ccccc1,11
COc1cccc(-c2nn(-c3ccccc3)cc2CN(C)Cc2c(C)nc3ccccn23)c1,0
N/C(=N\OC(=O)c1ccco1)c1ccccn1,21
O=C(NCC1CCCO1)C(=O)N/N=C/c1cc(Cl)ccc1O (centres undefined),-5
CC(=O)c1sc(NC(=O)COc2ccccc2)nc1C,20
O=C(CNCc1ccc(Cl)cc1)Nc1ccc2c(c1)OCCO2,14
Cc1cc(C)nc(/N=C(\NC(=O)C(C)(C)C)Nc2ccc(F)cc2)n1,16
COc1cc(NC(=O)C2=C(N3CCOCC3)/C(=C/c3ccc(Cl)cc3)CC2)cc(OC)c1OC,7
CN1CCN(C(=O)/C(=C/c2ccc(F)cc2)c2ccsc2)CC1,3
CC(C)C(c1nnnn1Cc1ccc(F)cc1)N1CCN(c2ccc(O)cc2)CC1 (centres undefined),16
CCSc1cc(Cl)nc(N)n1,16
COc1ccc(/C=N/n2cnc3c([nH]c4ccc(C)cc43)c2=O)cc1CN1CCCC1,23
O=C(Cc1ccc(Cl)cc1)Nc1ncc([N+](=O)[O-])s1,17
CC(C)C(C)NC(=O)COc1ccc(Sc2ccc(OCC(=O)NC(C)C(C)C)cc2)cc1 (centres undefined),6
COc1ccccc1OCC(=O)Nc1ccc(Cl)cc1,10
CCCc1nnc(NC(=O)CCC(=O)NC2CCCc3ccccc32)s1 (centres undefined),6
O=C(O)CCCCCn1c(O)c(C=C2N=c3ccccc3=N2)sc1=S,3
O=C(/C=C/c1cccs1)N1CCC2(CC1)Oc1ccc(Cl)cc1C(=O)C21CC(c2ccccc2)=NO1 (centres undefined),18
O=C(CCNC(=O)c1ccccc1Cl)Nc1cccc(C(F)(F)F)c1,13
Nc1nnc(-c2ccc(Cl)cc2Cl)s1,-8
CCc1cccc(C)c1NC(=O)C1CN(S(=O)(=O)c2ccccc2)CCN1S(=O)(=O)c1ccccc1 (centres undefined),-5
COc1ccc(C(C)(C)C)cc1NC(=S)NCCN1CCOCC1,20
Cc1c(NC(=O)c2ccc(S(=O)(=O)N(C)c3ccccc3)cc2)c(=O)n(-c2ccccc2)n1C,18
CC(=O)N1CCN(Cc2nc3cc(NC(=O)COc4ccccc4)ccc3n2C)CC1,21
Nc1ccccc1Sc1ccccc1[N+](=O)[O-],16
COC(=O)c1ccc(C23CC4(C2)[C@H](CN(Cc2ccc(-c5ccccc5)cc2)[C@@H]4c2ccccc2)C3c2ccccc2)cc1 (some centres undefined),16
Cn1c(=S)[nH]c2c(c1=O)C(C)(C)Cc1ccccc1-2,11
O=S(=O)([O-])C/C(=C\c1ccc(Cl)cc1)c1cc[n+](CCO)cc1,23

# By substructure, those above containing fluorine (15)
SMILES,Biofilm kill mix
O=C(CSc1nnc(NC(=O)c2ccco2)s1)Nc1ccc(F)cc1,8
COc1ccc(/C=N/Nc2ccc(C(F)(F)F)cc2[N+](=O)[O-])cc1O,23
Cc1cc(C)c(S(=O)(=O)NCC(CCC(=O)O)C(F)(F)F)c(C)c1 (centres undefined),5
COc1ccc(F)c(CN2CCC(N3CCC(C(=O)N4CCOCC4)CC3)CC2)c1,9
O=C(CCS(=O)(=O)c1ccc(Cl)cc1)NCCN1C(=O)S/C(=C\c2ccccc2F)C1=O,12
O=C(c1ccccc1F)N1CCN(S(=O)(=O)c2ccc(S(=O)(=O)N3CCCCCC3)cc2)CC1,13
COc1ccccc1NC(=S)Nc1cccc(F)c1,1
O=C(COc1ccc(NC(=O)c2ccccc2[N+](=O)[O-])cc1)c1ccc(F)cc1,1
CC(C)OC(=O)c1cc2c(ccn2-c2ccc(F)cc2)n1CC(=O)N1CCN(C(=O)c2ccco2)CC1,8
O=C(COC(=O)c1nc(-c2ccccc2)n(-c2cccc(C(F)(F)F)c2)n1)NCc1cccs1,19
O=C(NCCc1ccc(F)cc1)Nc1ccc2c(c1)OCO2,12
Cc1cc(C)nc(/N=C(\NC(=O)C(C)(C)C)Nc2ccc(F)cc2)n1,16
CN1CCN(C(=O)/C(=C/c2ccc(F)cc2)c2ccsc2)CC1,3
CC(C)C(c1nnnn1Cc1ccc(F)cc1)N1CCN(c2ccc(O)cc2)CC1 (centres undefined),16
O=C(CCNC(=O)c1ccccc1Cl)Nc1cccc(C(F)(F)F)c1,13
